Screens from PubChem.
LANA-H2B inh: blocks KSHV LANA binding to histone H2A/H2B; AID 2629; inhibition, % (no concentration beside the values); hit rate 0.6% among 320,000; Q9QR71; cell-free LANA-H2A/H2B peptide, fluorescence polarization; in the data active = inhibition mostly above about 10%, no sharp cut-off; inactive = mostly below about 6.7%;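 note: stock transfer was 7.5 nL into about 10 µL; 0% = median of vehicle wells and 100% = median of positive control wells; one replicate is shown; the record names a cut of 25% in any replicate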
Target sequence (Q9QR71 whole entry, looked up): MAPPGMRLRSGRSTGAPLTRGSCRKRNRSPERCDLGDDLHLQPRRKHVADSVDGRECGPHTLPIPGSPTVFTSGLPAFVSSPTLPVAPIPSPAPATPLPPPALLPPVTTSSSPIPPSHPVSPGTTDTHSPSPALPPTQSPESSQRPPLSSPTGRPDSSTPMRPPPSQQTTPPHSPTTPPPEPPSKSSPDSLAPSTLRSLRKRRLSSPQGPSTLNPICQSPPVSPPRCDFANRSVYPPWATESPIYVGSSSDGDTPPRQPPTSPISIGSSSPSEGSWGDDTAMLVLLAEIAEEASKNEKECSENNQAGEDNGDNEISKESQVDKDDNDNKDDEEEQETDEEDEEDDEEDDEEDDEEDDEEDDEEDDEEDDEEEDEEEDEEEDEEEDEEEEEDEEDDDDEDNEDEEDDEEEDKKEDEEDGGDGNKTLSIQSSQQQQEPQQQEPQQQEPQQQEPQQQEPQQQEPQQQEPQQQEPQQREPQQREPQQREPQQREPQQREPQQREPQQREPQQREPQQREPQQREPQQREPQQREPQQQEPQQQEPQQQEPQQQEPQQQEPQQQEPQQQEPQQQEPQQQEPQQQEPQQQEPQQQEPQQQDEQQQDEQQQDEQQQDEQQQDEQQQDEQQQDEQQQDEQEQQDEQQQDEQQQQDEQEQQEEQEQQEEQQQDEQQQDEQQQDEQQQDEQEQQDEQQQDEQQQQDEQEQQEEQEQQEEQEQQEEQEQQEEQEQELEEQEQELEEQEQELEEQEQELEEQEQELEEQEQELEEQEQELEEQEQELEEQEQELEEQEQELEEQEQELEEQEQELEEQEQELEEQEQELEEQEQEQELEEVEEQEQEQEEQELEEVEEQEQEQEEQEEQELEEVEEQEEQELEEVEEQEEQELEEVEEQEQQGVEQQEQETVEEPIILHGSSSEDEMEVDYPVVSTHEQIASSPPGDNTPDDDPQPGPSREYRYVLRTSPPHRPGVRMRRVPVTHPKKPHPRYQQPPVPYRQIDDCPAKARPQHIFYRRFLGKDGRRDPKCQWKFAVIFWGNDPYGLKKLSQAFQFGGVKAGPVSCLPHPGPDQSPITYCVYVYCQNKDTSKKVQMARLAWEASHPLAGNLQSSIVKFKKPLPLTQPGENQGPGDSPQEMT
A1 inh: inhibitors of the anti-apoptotic protein A1, read as caspase activation | caspase activation, % (test concentration not listed) | hit rate 0.066% among 330,000 | AID 2462 | MEF A1-2A-BIM cells, Caspase-Glo 3/7 luminescence, 3 h; percent of clofoctol response, vehicle zero;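 active = over half of replicate activation scores above 10%, or exactly half above 10 with the replicate mean above 10; inconclusive = replicate mean below 10 yet half the replicates above 10; inactive = over half of replicates below 10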;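 note: wells of about 30 µL received 50 nL stock; many hits fall short of the cut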
Beta2AR agonist: activates human beta-2 adrenergic receptor causing internalization; hit rate 0.43% among 340,000; response, % (no concentration beside the values); Am2.2-beta2AR cells, FAP receptor internalization, flow cytometry; reference of the scale not given here;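 active = response above a set limit, near 3 SD of response in nonfluorescent compounds, cut at about 42% in these data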;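 note: stock transfer was 100 nL into about 11 µL; a reference agonist was the positive control; negative values mostly stem from fluorescent compounds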
Calb FLC: affects C. albicans growth with fluconazole; C. albicans CaCi-2 (fluconazole-resistant clinical isolate) + fluconazole, Alamar Blue growth, 48 h; growth inhibition, % (no concentration beside the values); hit rate 0.57% among 300,000; AID 1979;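 active = most replicates above 75%; inconclusive = exactly half above 75%; inactive = most below 75%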;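 note: all wells also contain fluconazole at 8 µg/ml as a sub-toxic cotreatment; 0% = median of DMSO wells and 100% = median of geldanamycin control wells; wells of about 8 µL received 7.5 nL stock; the first replicate is given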
RanGTP-Impb inh: disruptors of Ran-importin-beta complex formation – biochemical, FRET, CFP-Ran, YFP-importin-beta, homogeneous, primary screen; cell-free CFP-Ran/YFP-importin-beta FRET ratio; inhibition, % (concentration not given with the values); hit rate 1.1% among 300,000; AID 2216;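 active = most replicates above 15%; inconclusive = exactly half above 15%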;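 note: 0% = DMSO wells and 100% = Ran loaded with GDP instead of GTP; wells of about 40 µL received 100 nL stock; the first replicate is given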
UCH37 inh: human UCH37 deubiquitinating enzyme inhibition. Q9Y5K5. purified proteasome/UCH37, Ub-AMC cleavage fluorescence. inhibition, % (test concentration not listed). hit rate 0.33% among 330,000. AID 588478;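 active = mean of two replicates above 20%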;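 note: 0% = compound-free wells with enzyme and 100% = wells lacking proteasome; stock transfer was 100 nL into about 20 µL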
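Schedule: 30 min plus 25 min, room temperature / Material: human UCH37 within purified proteasomes / Technique: AMC fluorescence intensity at 355/460 nm / Buffer or medium: pH 7.4 Tris-HCl (50 mM) with ovalbumin, ATP-MgCl2, DTT / Controls: wells without proteasome as full block, compound-free enzyme plus substrate as uninhibited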
T cruzi inh: blocks replication of Trypanosoma cruzi | T. cruzi beta-gal in NIH3T3, luminescence, 90 h | hit rate 1.4% among 300,000 | AID 1885 | inhibition, % (concentration not given with the values);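 active = mean inhibition across valid replicates above about 55%, limit read from the data; inconclusive = mean below that limit but half or more replicates reach it; inactive = mean below it, under half of replicates reach it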;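 note: signal also drops with host cell toxicity which is not excluded here; 0% = plate median of DMSO wells and 100% = zero luminescence signal; higher percent means less beta-gal luminescence so fewer parasites; stock transfer was 50 nL into about 50 µL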
Beta apoptosis: beta cell apoptosis inhibition; INS-1E cytokine-induced death, ATP luminescence, 48 h; percent of positive-control rescue, neutral wells zero; protection from apoptosis, % (test concentration not listed); hit rate 0.8% among 300,000;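 active = all replicates at 75% or more, or half of them and the mean; inconclusive = half reach 75% but not the mean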;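 note: 0% = cytokine-treated negative control wells and 100% = positive control rescue; higher means more ATP so stronger rescue from cytokine killing; wells of about 40 µL received 100 nL stock; the first replicate is given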
* marks the source's active call; other numbers are inactive results; ? = inconclusive; . = no result given. Rows were taken by chance; 4.3% or so of the library scored in one or more.

SMILES	LANA-H2B inh	A1 inh	Beta2AR agonist	Calb FLC	RanGTP-Impb inh	UCH37 inh	T cruzi inh	Beta apoptosis
Cc1ccc(C(=O)N[C@H](C(=O)Nc2cc(Cl)cc(Cl)c2)C(C)C)cc1	-1.7	-0.6	-2	-24	-1.0	-6.0	10	1
CCS(=O)(=O)c1ccc(C(=O)Nc2cccc(Cl)c2)c(Cl)c1Cl	2.0	0.7	1	7	0.6	3.3	2	5
COCCN(CC(=O)NC1CCCCC1)C(=O)CSc1nc2ccccc2o1	-0.2	2.0	-4	-4	-3.3	4.8	-3	2
CC(C)CC1c2[nH]c3ccccc3c2CCN1CCCn1cccn1 (stereo not given)	-6.9	-0.7	-7	-20	5.6	-34	-17	-5
CN(C)Cc1c(C(=O)N/N=C/c2cccs2)nnn1-c1nonc1N	7.1	0.7	-15	-1	3.2	.	20	-2
O=C(NCC1CCCN1S(=O)(=O)c1cccs1)c1ccc([N+](=O)[O-])cc1 (stereo not given)	-3.5	0.2	-6	25	0.8	5.3	11	4
Cc1cc(NC(=O)CSCc2ccccc2)no1	-1.3	-0.3	5	-10	1.2	0.8	-22	-2
Fc1ccc(Nc2nc(-c3cccnc3)cs2)cc1	4.9	-1.9	-11	-1	-5.0	-1.2	30	-6
CCOC(=O)c1[nH]c2ccccc2c1NC(=O)CC	-1.1	0.1	0	-1	3.7	0.6	-10	-1
COc1cc(C(=O)Nc2nc3ccc(S(C)(=O)=O)cc3s2)cc(OC)c1C	9.2	0.3	10	12	0.2	-3.5	6	16
O=C(Nc1ccc(F)cc1)c1ccc(C(=O)N2CCOCC2)cc1	2.9	-0.6	0	-12	2.5	3.1	-2	-9
N/C(=N\OC(=O)c1cc([N+](=O)[O-])ccc1Cl)c1ccccn1	-4.7	-0.7	-7	10	-1.8	.	-16	-6
Cc1ccc(C2=Nn3c(COc4ccc(Cl)cc4)nnc3SC2CC(=O)O)cc1 (stereo not given)	2.9	-0.1	1	-4	1.5	1.6	1	-8
CCOC(=O)N1CCN(Cc2nc(Cc3cccc(F)c3)no2)CC1	-8.8	-0.5	0	-7	-3.5	3.4	0	-2
Cc1ccccc1C(=O)Oc1ccccc1C(=O)N1CCOCC1	0.6	-1.1	-5	13	3.5	2.7	-10	0
COc1ccc(C2C(C#N)=C(C)NC(C)=C2C#N)c(OC)c1	0.7	-1.0	0	32	3.8	-5.4	-1	-4
O=C(COc1ccc(C(=O)NCc2cccnc2)cc1)Nc1cccc(C(F)(F)F)c1	-7.0	0.1	-12	0	-0.2	-1.0	9	-2
COc1ccc(CCNC(=O)CN(c2cccc([N+](=O)[O-])c2)S(C)(=O)=O)cc1OC	4.3	-0.8	0	-6	-4.1	3.4	-15	-2
O=C(COc1ccc(/C=N/NS(=O)(=O)c2ccccc2)cc1)Nc1ccccc1	4.1	-0.4	0	-26	0.4	.	-12	1
COc1ccc(N2CCN(S(=O)(=O)c3c(C)nc4sccn4c3=O)CC2)cc1	-1.4	0.5	-13	-7	-1.9	7.9	-2	4
COc1ccccc1N1CCN(C(=O)c2cc(-c3ccc(F)cc3)on2)CC1	1.6	-0.3	6	38	-0.2	1.7	1	-4
Cc1occc1C(=O)N1CCCC(N2CCN(c3cccc(Cl)c3)CC2)C1 (stereo not given)	0.3	0.2	5	-5	2.7	-1.1	9	-21
CCc1noc(N)c1C(=O)Nc1ccc(F)c(Cl)c1	3.7	0.0	-3	-4	3.1	5.1	15	-4
Cc1cc(OCC(=O)Nc2ccncc2)ccc1Cl	6.2	-1.1	-6	-10	-3.5	2.4	4	-3
Cc1ccc2nc(-c3ccncc3)cc(C(=O)N3CCOCC3)c2c1	-8.4	0.0	-1	-1	-0.3	.	4	.
COc1ccc(-n2nnnc2Sc2ccc(S(=O)(=O)N3CCOCC3)cn2)cc1	-0.1	0.2	1	13	1.4	-0.6	-11	-1
CC1CCN(C(=O)C2CCCN(S(=O)(=O)c3ccc4c(c3)CC(C)N4C(=O)C3CC3)C2)CC1 (stereo not given)	1.1	1.0	-21	-8	-0.9	5.7	19	6
Cc1ccc(C)c(NS(=O)(=O)c2ccc(OCC(=O)NCC3CCCO3)cc2)c1 (stereo not given)	1.4	0.2	0	-11	-2.7	-0.9	-8	2
COc1ccc(-c2cc(C(=O)N3CCc4ccccc4C3)no2)cc1	-0.2	-1.5	-10	-2	4.8	2.7	4	-4
CCOc1ccccc1NC(=O)COc1coc(CN2CCc3ccccc32)cc1=O	.	-0.4	6	5	-5.1	5.5	-1	-4
Cc1ccccc1SCc1noc(C(=O)NC(C)C)c1C(=O)O	1.8	-1.0	-3	-13	-0.7	0.8	-12	-7
COc1ccccc1C(=O)Nc1ccnn1C1CCN(C(=O)c2ccoc2)CC1	-1.2	1.3	-3	3	0.7	-0.7	-4	-2
O=C(CSc1ccccc1C(=O)N1CCN(c2ccc([N+](=O)[O-])cc2)CC1)N1CCCC1	-0.9	0.9	6	.	.	7.1	.	7
Cc1ccc(-c2ccc(C(=O)NCCCNC(=O)c3cnccn3)o2)cc1Cl	3.8	-0.2	5	-10	1.9	4.3	1	-3
CC(Oc1ccc(Cl)cc1Cl)C(=O)Nc1ncccn1 (stereo not given)	-0.4	-0.1	-11	12	-0.7	0.8	-7	-8
Cc1sc2ncnc(N3CCC(C(=O)Nc4ccc(Cl)c(Cl)c4)CC3)c2c1C	1.4	-0.3	-7	.	.	-3.4	.	10
COc1ccc(-c2csc(NC(=O)CSc3nc4ccccc4c(=O)[nH]3)n2)cc1	-0.9	0.7	3	2	4.8	1.0	-1	-2
Cn1c(CC(=O)Nc2ccccc2F)nnc1SCC(=O)NC1=NCCS1	-4.7	1.1	4	-5	7.6	.	0	-13
CCOC(=O)c1sc(NC(=O)c2ccc(Br)o2)cc1C	-2.1	-0.4	-6	-8	0.9	-4.4	10	17
COc1ccc2[nH]c(=O)c(CN(C(=O)c3ccccn3)C3CCCCC3)cc2c1	4.9	-0.5	0	2	6.9	-38	7	2
COc1ccccc1CNC(=O)c1ccc2ccccc2n1	-6.6	1.3	4	7	2.5	1.7	12	-18
O=C(CN1C(=O)c2cccnc2Oc2ccc(Cl)cc21)N1CCCCCC1	2.3	0.4	-2	-1	1.6	1.1	-2	2
O=C(Nc1ccc(O)c2c(=O)cc(-c3ccccc3Cl)oc12)c1cccs1	2.6	-1.1	-4	-1	3.3	-0.3	13	0
COc1ccc(NC2CC(=O)N(CCc3ccccc3)C2=O)cc1 (stereo not given)	-11	-0.4	9	13	0.7	3.4	-5	2
Cc1cc(C)c(NC(=O)CCCN2CCOCC2)c(C)c1	0.7	0.2	-1	38	-1.7	0.3	-3	-5
COc1cc(C2C(C(=O)c3ccc(C)o3)=C(O)C(=O)N2c2cc(C)on2)cc(OC)c1OC (stereo not given)	5.0	-0.9	5	4	0.9	2.2	-16	-2
O=C(Cc1ccccc1)n1nc(-c2ccco2)nc1SCc1ccccc1	0.5	-0.5	-13	16	0.2	2.9	-18	.
CC(C)CNC(=O)COC(=O)Cc1ccc(Cl)cc1	3.2	-0.3	7	-1	-4.3	-1.5	-7	-4
COc1ccc(NS(=O)(=O)CC23CCC(CC2=O)C3(C)C)cc1 (stereo not given)	-1.0	0.1	-1	-13	0.0	2.4	-11	-1
O=C1CC(O)(c2ccccc2)C(c2ccccc2)=C1c1ccccc1 (stereo not given)	3.6	1.6	-3	3	-5.7	2.8	17	3

(list continues)
SMILES	LANA-H2B inh	A1 inh	Beta2AR agonist	Calb FLC	RanGTP-Impb inh	UCH37 inh	T cruzi inh	Beta apoptosis
CN(Cc1ccccc1)c1ncnc(N)c1[N+](=O)[O-]	5.7	0.3	5	1	?	2.7	-13	.
CC1(C)C/C(=N\O)c2cc3c(nc2C1)CCCC3	0.4	0.7	-2	-14	-2.5	.	-6	-4
CCN(CCn1cccn1)Cc1c(C(=O)N2C[C@@H](C)O[C@@H](C)C2)nc2ccc(Cl)cn12	0.3	-0.9	2	-3	3.2	1.9	-7	1
COc1ccc(C(=O)NCc2ccc(C(=O)NCC(OC)OC)cc2)cc1OC	1.7	0.9	-2	-5	1.1	-2.8	4	-4
c1ccc(-n2nnnc2NCCCN2CCOCC2)cc1	1.7	0.5	-3	8	-0.1	-1.0	-14	1
CC(C)(C)C(=O)Nc1ccc(C(=O)NNC(=O)Cc2ccccc2)cc1	3.6	0.5	2	-11	4.7	-0.3	-14	-3
CCOc1ccc(CCNC(=O)C2CCCN(c3nn4c(=O)cc(C)nc4s3)C2)cc1 (stereo not given)	0.9	-0.1	-5	0	-2.4	5.0	-3	4
CN1CCN(C(=O)NCC23CC4CC(CC(C4)C2)C3)CC1	-5.6	-0.9	-3	-3	2.8	2.6	7	-2
O=C(O)CNC(=O)CCCn1nnc2ccccc2c1=O	-0.2	-0.3	3	-1	-0.3	4.9	0	-4
Cc1ccc(Nc2ccc(N)cc2S(=O)(=O)O)cc1	-0.8	0.7	0	19	0.1	-25	13	-3
O=C(Nc1ncnc2sc3c(c12)CCCCC3)c1ccco1	-1.2	-0.6	-3	-1	?	-1.1	1	-1
CC1(c2nnc(-c3cccc(Cl)c3)o2)CC(c2cccc(Cl)c2)=NO1 (stereo not given)	5.1	-1.9	5	-16	6.4	-0.3	-6	1
CCOc1cc(C)c(C(C)C)cc1S(=O)(=O)n1ccc(C)n1	-4.9	0.8	16	43	-1.1	5.1	6	2
CCCn1c(=O)c2ccccc2n2c(SCCNCCO)nnc12	-0.7	-0.3	5	1	0.2	-4.7	-6	4
COc1ccc(/C(C)=N/NC(=O)c2ccccc2N)cc1	-6.4	0.2	-5	4	-1.3	.	-5	-3
COc1ccc(/C(O)=C2/C(=O)C(=O)N(c3ccccn3)C2c2ccc(C(C)C)cc2)cc1 (stereo not given)	.	.	3	0	-3.9	11	-7	.
CC(C)C(=O)N(c1ccc(F)cc1)C1C=CS(=O)(=O)C1 (stereo not given)	-0.5	0.3	3	0	2.1	2.9	-10	0
COc1ccc(NC(=O)Cn2c(=O)n(CC3CCCO3)c(=O)c3cc(OC)c(OC)cc32)c(OC)c1 (stereo not given)	-0.7	0.4	-2	6	2.3	3.2	-2	0
Cc1cc(C(=O)Nc2cccnc2)no1	1.7	0.1	6	6	0.5	2.8	0	4
CCOC(=O)c1c(NC(=O)CCCN2CCOCC2)sc2c1CC(C)(C)OC2	4.6	-0.7	6	16	-0.6	1.6	4	-5
CNc1nc(SC)nc(N2CCOCC2)n1	-0.7	-0.5	3	6	-3.2	1.5	-16	-7
Cc1cc(C)cc(NC(=O)Cc2ccc(NC3=NC4CS(=O)(=O)CC4S3)cc2)c1 (stereo not given)	-5.5	0.0	11	-1	4.4	-2.4	0	2
COc1cc(NC(=O)CSc2nc3c(c(=O)[nH]2)CCCC3)cc(OC)c1OC	-4.7	0.1	-6	13	2.8	-0.5	14	0
